Compound activity from PubChem.
H5N1 CPE: MDCK cell protection from H5N1 avian flu. cytopathic effect, luminescence, 72 h; stronger effect = higher value; no value below 0 was filed and about half of the inactive calls have no number; reference of the scale not given here. inhibition, % at 50 µM. hit rate 0.07% among 96,000. AID 740; in the data active means inhibition above about 25%
Numbers without * were called inactive; i = inactive. Not all compounds are listed; the hit share may differ from the screen's.

The first four compounds, to show the layout:
SMILES | H5N1 CPE
CCCCn1nnnc1SCC(=O)Nc1ccc(F)cc1 | i
COc1cccc(OC)c1C(=O)n1nc(C)cc1C | i
CCCCOC(=O)C1=C(C)NC2(O)c3ccccc3C(=O)C12O (configuration not stated) | i
CCCc1cc(=O)n2[nH]c(NCc3c(F)cccc3Cl)nc2n1 | 0.4

The whole of this part, repeating the preview:
SMILES | H5N1 CPE
CCCCn1nnnc1SCC(=O)Nc1ccc(F)cc1 | i
COc1cccc(OC)c1C(=O)n1nc(C)cc1C | i
CCCCOC(=O)C1=C(C)NC2(O)c3ccccc3C(=O)C12O (configuration not stated) | i
CCCc1cc(=O)n2[nH]c(NCc3c(F)cccc3Cl)nc2n1 | 0.4
c1ccc2c(Oc3ccc4c(c3)OCO4)nncc2c1 | 0.4
CCOC(=O)N1CCN(C(=O)C(C)SCc2ccccc2)CC1 (configuration not stated) | 1.0
O=C(CC1(O)C(=O)N(Cc2ccccc2)c2ccccc21)c1ccc2c(c1)OCO2 (configuration not stated) | i
CCOC(=O)c1ccc(NS(=O)(=O)c2ccc3c(c2)CCCN3C(C)=O)cc1 | i
COc1cccc(-c2nc(CS(=O)CC(=O)N3CCC4(CC3)OCCO4)c(C)o2)c1 (configuration not stated) | 0.4
Cn1nc(CC(=O)NCc2cccc3ccccc23)c2ccccc2c1=O | 0.2
CC(=O)c1cccc(-n2nnnc2SCC(=O)Nc2ccccc2N2CCCCC2)c1 | 0.3
COc1ccc2nc(N3CCCC3)c(C#N)cc2c1 | 0.9
CCCNC(=O)N1CCN(S(=O)(=O)c2ccc(C)cc2)CC1 | 0.3
CC1CCN(Cc2cnc(Cl)s2)CC1 | 1.0
CCN(CC)C(=O)CN1CCN(c2ccccc2F)CC1 | i
Cc1oc2cc3c(C(=O)N4CCCCC4)c(C)oc3cc2c1C(=O)N1CCCCC1 | 1.1
CCOC(=O)Nc1cccc(OCC(=O)Nc2ccc(OC)cc2OC)c1 | i
O=S(=O)(c1ccccc1)N1CCN(c2nnnn2-c2ccccc2)CC1 | 2.6
CCCCn1c(C(C)NC(=O)CC)nc2ccccc21 (configuration not stated) | 2.0
CC(C)OC(=O)c1cccnc1N1CCN(c2ccc(F)cc2)CC1 | i
CCOCCCN(C(=O)Nc1ccc(CC)cc1)C1CCN(C(C)=O)CC1 | 0.2
O=C(Nc1ccc(OC(=O)c2ccco2)cc1)c1ccco1 | 1.5
CCc1ccccc1NC(=O)c1ccc(-n2c(C)ccc2C)cc1 | 0.2
CN(C)C(=O)N1CCC(C(=O)NCc2ccc3c(c2)OCO3)CC1 | i
COc1c2c(nc3ccccc13)OC(C(C)(O)COC(C)=O)C2 (configuration not stated) | 2.1

Carrying on.
SMILES | H5N1 CPE
CCN1CCCC1Cn1cnc2c([nH]c3cccc(Cl)c32)c1=O (configuration not stated) | i
COC(=O)COc1ccccc1C(N)=O | 1.7
C=CCn1c(NCCO)nc2c1c(=O)n(C)c(=O)n2C | i
COc1ccc(OC)c(CN2CCN(C(=O)COc3cccc(C)c3)CC2)c1 | i
Cc1ccc2c(c1)c1c(n2CC(O)Cn2c(C)nc3ccccc32)C(=O)CCC1 (configuration not stated) | i
CCOC(=O)c1ccc(CNC(=O)Cn2nnc(-c3ccc(C)cc3)n2)o1 | 0.1
COC(=O)CCN(C1CCCCC1)S(=O)(=O)c1ccc(S(=O)(=O)NC2CCCCC2)cc1 | 2.2
O=C(/C=C/c1ccc(Cl)c(Cl)c1)n1cccn1 | i
CCC(CC)NCc1ccc(OC)cc1OC | i
C=CCNC(=O)c1ccc(C)c(Br)c1 | 2.4
Cc1n[nH]c(C)c1N1C(=O)c2cccc3c(N4CCCCCC4)ccc(c23)C1=O | 0.8
CCOCCn1c(N2CCN(c3ccc(OC)cc3)CC2)nc2c1c(=O)[nH]c(=O)n2C | 0.8
Cc1cc(=O)[nH]c2c1c(C)nn2C1CCCCC1 | 0.5
CCc1c(C(=O)NCc2cnn(C)c2)csc1C | i
COc1ccccc1CNC(=O)C1CCN(S(=O)(=O)N2CCCCC2)CC1 | i
COc1cccc(/C(O)=C2\C(=O)C(=O)N(c3ccccn3)C2c2cccc(OC)c2OC)c1 (configuration not stated) | i
CC(C)(C)N(Cc1ccccc1)C(=O)CSc1nc2ccccc2c(=O)[nH]1 | 0.1
COc1ccccc1-n1cc(C(=O)NCC(=O)N2CCN(c3ccccc3)CC2)c2ccccc2c1=O | i
CC1CC(C)(C)CC2(C1)NC(=S)N(c1ccccc1)N2 (configuration not stated) | i
Cc1cccc(Nc2ncc3c(n2)CC(c2ccco2)CC3=O)c1 (configuration not stated) | i
C=CCOc1ccc(CNc2nn[nH]n2)cc1 | 0.2
Cn1c(=O)oc2cc(S(=O)(=O)NCCN3CCc4ccccc4C3)ccc21 | 0.0
COC(=O)c1nc2n(n1)C(c1cc(OC)ccc1OC)C(C(=O)OC1CCCCC1)=C(C)N2 (configuration not stated) | i
O=C(NCC(c1cccnc1)N1CCN(c2ccc(F)cc2)CC1)c1ccc2c(c1)OCO2 (configuration not stated) | 0.3
COc1cccc(-n2c(SCC(N)=O)nc3c([nH]c4ccccc43)c2=O)c1 | i

In another format: entries from further up.
canonical_smiles,H5N1 CPE
COc1ccccc1CNC(=O)C1CCN(S(=O)(=O)N2CCCCC2)CC1,i
COc1cccc(/C(O)=C2\C(=O)C(=O)N(c3ccccn3)C2c2cccc(OC)c2OC)c1 (configuration not stated),i
CC(C)(C)N(Cc1ccccc1)C(=O)CSc1nc2ccccc2c(=O)[nH]1,0.1
COc1ccccc1-n1cc(C(=O)NCC(=O)N2CCN(c3ccccc3)CC2)c2ccccc2c1=O,i

Remaining list, next part:
SMILES | H5N1 CPE
CC1(C)CC(=O)C2=C(C1)N(Cc1ccco1)C(=O)NC2(C(F)(F)F)C(F)(F)F | 0.2
CC(C)c1c(O)nc(SCCN2CCOCC2)[nH]c1=O | i
Cc1cc(C)n2c(Nc3ccc4c(c3)OCCO4)c(-c3ccc(C)o3)nc2n1 | 1.8
CNS(=O)(=O)c1cccc(C(=O)OCc2cc(Cl)cc3c2OCOC3)c1 | i
Cc1cc(SCC#N)n2nc(C)c(-c3ccc(Cl)cc3)c2n1 | i
CCC(C)NC(=O)Cn1c(=O)n(-c2ccccc2)c(=O)c2ccc(C(=O)NCc3ccco3)cc21 (configuration not stated) | 0.5
COc1ccc(CC2S/C(=C(\C#N)C(=O)NCc3ccco3)N(c3ccc(C)cc3)C2=O)cc1 (configuration not stated) | 0.1
CCOc1ccccc1N(CC(=O)Nc1ccccc1C(=O)O)S(C)(=O)=O | i
Cc1ccc2c(Cl)c(C(=O)NCC3CCCO3)sc2c1 (configuration not stated) | i
CCN(CC)CCNC(=O)CCCNC(=O)Cn1cnc2sc(C)c(C)c2c1=O | 0.7
Cn1c(SCC(=O)NCc2cccs2)nnc1-c1ccc(S(=O)(=O)N2CCCC2)cc1 | 1.7
O=C(COC(=O)c1cccnc1)Nc1cccc(Cl)c1 | 0.9
CCC(C)NC(=O)CS(=O)(=O)Cc1nc(-c2cccc(OC)c2)oc1C (configuration not stated) | 0.8
Clc1ccc(Nc2ncnc3c2cnn3-c2ccccc2)cc1 | i
COc1ccc(S(=O)(=O)N2CCN(c3c(C)cccc3C)CC2)cc1OC | 1.7
CCOC(=O)c1ccc(N=C2NC(=O)CS2)cc1 | 0.8
CC1=C(C(=O)N2CCN(C(=O)c3ccco3)CC2)C2(CCC(C)CC2)OC1=O (configuration not stated) | 0.1
CC1CCN(c2nc(-c3ccccc3)cc(C(F)(F)F)n2)CC1 | i
COc1ccc2c(C)cc(SCC(=O)N3CCOCC3)nc2c1 | 4.6
CCOc1ccc(N2C(N)=NC(N)=NC2(C)C)cc1 | i
Cn1cccc1Cc1nnc(SCC(=O)NCc2ccco2)n1-c1ccc(F)cc1 | 1.1
COCCNC(=O)CCSCc1ccccc1F | 1.1
Clc1ccccc1-c1cc(COc2ccc3ccccc3c2)no1 | i
CC(C)OC12Oc3ccccc3C=C1N1CCC2CC1 (configuration not stated) | 0.7
CC(C)NC(=O)c1ccc(-c2ccc(Cl)c(C(F)(F)F)c2)o1 | 0.2

(more compounds)
SMILES | H5N1 CPE
CC1CCN(C(=O)Cc2nn(C)c(=O)c3ccccc23)CC1 | 2.4
COc1ccc(/C(C)=C2\SC(=S)N(CCC(=O)O)C2=O)cc1 | 0.2
Cc1onc(-c2ccccc2Cl)c1C(=O)NCc1nc(-c2ccccc2)no1 | i
CCC(C)c1ccccc1NC(=O)c1cccnc1 (configuration not stated) | 1.4
COc1ccccc1NCCC#N | i
COc1ccc(C(C)C)cc1S(=O)(=O)NCc1ccccn1 | 0.3
COc1ccc(C(=O)c2cnc(C(C)C)n2C)cc1 | 0.9
CCOC(=O)N1CCC(NC(=O)CN2C(=O)CSc3nc(C)cc(C)c32)CC1 | i
CCOc1ccccc1NC1c2ccccc2C(=O)N1c1cccnc1 (configuration not stated) | 2.2
Cc1cc(C(=O)Nc2cccc(C(=O)O)c2)oc1C | i
CC(NC(=O)c1ccccc1F)C(=O)O (configuration not stated) | 0.2
Cc1ccc(NC(=O)c2ccc(NCC3CCCO3)c([N+](=O)[O-])c2)cc1Cl (configuration not stated) | i
Cc1ccc(OCC(=O)N/N=C/c2cccn2C)cc1 | 0.1
Cc1cccc(S(=O)(=O)C(C#N)c2nc3ccccc3nc2N2CC(C)OC(C)C2)c1 (configuration not stated) | 0.5
Cc1ccc(S(=O)(=O)N(CC(O)CN2C(=O)NC(C)(C)C2=O)c2ccccc2)cc1 (configuration not stated) | i
O=C1CCC2(C(=O)O)Sc3ccccc3N12 (configuration not stated) | 0.1
Cn1c(=O)c(-[n+]2ccccc2)c([O-])c2ccccc21 | i
COCCn1c(SCC(=O)N(C(C)C)C(C)C)nnc1-c1cc2ccccc2cc1O | i
Cc1ccc2cc(CN(Cc3ccco3)S(=O)(=O)c3c(C)ccc4nsnc34)c(=O)[nH]c2c1 | 0.9
COc1cccc(N(C(=O)Cn2nnc(-c3cccs3)n2)C(C(=O)NC(C)C)c2ccc(C)o2)c1 (configuration not stated) | 0.1
CCOc1ccccc1N1CCN(Cc2ccco2)CC1 | 0.0
CCOc1ccc(OCC)c(NC(=O)CN(C)S(=O)(=O)c2cnc[nH]2)c1 | i
CSc1nc2nc3c(c(=O)n2[nH]1)CN(Cc1ccccc1)CC3 | 0.6
COc1cc(S(=O)(=O)NCC2CCCO2)ccc1Br (configuration not stated) | 0.6
O=C(NCc1ccc(OC(F)(F)F)cc1)C12CN(Cc3ccccc3)CC1C(c1cccc([N+](=O)[O-])c1)=NO2 (configuration not stated) | i

Further results:
SMILES | H5N1 CPE
Cc1cccc(CN2C(=O)N/C(=C/c3ccc(C)s3)C2=O)c1 | i
CC(C)(C)n1nnnc1CN(Cc1cccnc1)Cc1ccccc1Cl | 1.1
CCc1c(C)nc2nc(NC(C)=O)[nH]n2c1=O | i
CC(=O)Nc1nc(COc2ccccc2)cs1 | 1.5
O=c1cc[nH]c2cccc(Cc3ccccc3)c12 | 0.6
O=C(Cc1c(O)c2ccccc2[nH]c1=O)OC1CCCCC1 | i
Cc1nc2nc(-c3cccs3)cn2nc1C | 0.1
Cc1cc(C)c(S(=O)(=O)c2ccccc2)c(N(C)C)n1 | i
COc1cc2c3nnc(-c4ccc(F)cc4)c-3cn(Cc3ccc(F)cc3)c2cc1OC | i
CCCCn1c(=S)[nH]c2ncccc2c1=O | i
O=C(N/N=C/c1cccnc1)c1ccc([N+](=O)[O-])cc1 | i
CCn1c(O)c(C=NCCN2CCOCC2)sc1=S | 1.2
COc1ccc(NC(=O)NC2CCN(C(C)C)CC2)c(OC)c1 | i
CC(C)(C)c1cc(NC(=O)COC(=O)C2CC2)n(-c2ccccc2)n1 | i
COc1ccc(-n2nc3c(c2NC(=O)c2cc(Br)ccc2Cl)CS(=O)C3)cc1 (configuration not stated) | 0.9
O=C(NCCCCCCNC(=O)N1CCCCCC1)N1CCCCCC1 | i
COCCN1C(=O)c2ccccc2C(C(=O)NCc2ccco2)C1c1c[nH]c2ccccc12 (configuration not stated) | i
O=C(NCCCNc1ccc(C(F)(F)F)cc1[N+](=O)[O-])c1cc(F)c(F)cc1Cl | i
Oc1ccc(N2CCN(C(=S)NCCc3ccccc3)CC2)cc1 | i
COc1cc(C=O)ccc1OCCSc1ccc(C)cc1 | 0.6
Cc1ccc2c(c1)NC(=O)C(CC(=O)NCCCN1CCN(c3cc(Cl)ccc3C)CC1)O2 (configuration not stated) | i
CC1(C)NC(=O)N(c2ccccc2Cl)C1(C)NO (configuration not stated) | 0.4
Cc1ccc(Oc2ccc(NC(=O)CCC(=O)OCC(=O)c3cccs3)cc2)cc1C | i
CNC(=O)C1CC(=O)N(c2ccc(C)cc2)C1 (configuration not stated) | 0.6
COc1ccccc1NC(=O)C1C2CCCCC21 (configuration not stated) | i

(cont.)
SMILES | H5N1 CPE
Cc1ccc(C(=O)Nc2c(C(=O)NCc3ccco3)cnn2-c2ccccc2)cc1 | 4.8
CCCCC(=O)OCC(=O)c1[nH]c(C)c(C(=O)OCC)c1C | i
Cc1nn(-c2ccccc2)c(Cl)c1/C=C/C(=O)c1ccccc1 | i
CC(Oc1ccc(Br)cc1)C(=O)N1CCc2ccccc21 (configuration not stated) | 1.8
CC(C)(C)OC(=O)N1CCNc2ccccc2C1 | i
O=C(CCSc1ccccc1)Nc1nc2c(s1)COc1ccccc1-2 | 0.8
CN1CCN(c2ccccc2NC(=O)Cc2ccc(Cl)cc2)CC1 | 1.0

Exported in CSV form: 4 of the compounds above
Compound,H5N1 CPE
Cc1nn(-c2ccccc2)c(Cl)c1/C=C/C(=O)c1ccccc1,i
CC(Oc1ccc(Br)cc1)C(=O)N1CCc2ccccc21 (configuration not stated),1.8
CC(C)(C)OC(=O)N1CCNc2ccccc2C1,i
O=C(CCSc1ccccc1)Nc1nc2c(s1)COc1ccccc1-2,0.8
